# Screens as filed in PubChem BioAssay.
# RE007 growth inh – less growth of the S. pombe RE007 Vpr strain; AID 651644; Potency, µM (titrated, usually from 92.2 µM), for the others: top-dose activity change, negative = less growth; S. pombe RE007 Vpr strain, BacTiter-Glo ATP luminescence, 24 h; control for the full effect not named in the record; 360,000 tested, 0.21% active; active = well fitted falling curve with a large enough effect; inconclusive = small, poorly fitted or top-dose-only effect; inactive = no such curve, though single readings can be large or run the other way;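 further: on the % scale 0 is the no-effect control and ±100 the full control effect; nearly all actives have a fitted effect of over 50% in size; the assay follows cell death caused by Vpr and the record does not say whether a fall means rescue or toxicity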
#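 Fission yeast strain RE007, carrying one chromosomally integrated HIV-1 vpr copy, was seeded at OD 0.01 in PMG+AL medium with 23 nL pinned compound. After 24 h at 30 °C and 99% humidity, viability was read by BacTiter-Glo luminescence.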
# LASV entry inh – blocks Lassa virus binding to or entry into cells; Lassa virus pseudotype entry inhibition, cell reporter; control for the full effect not named in the record; Potency, µM (doses to about 37.9 µM), inactives show top-dose activity change, negative = inhibition, usual class: inhibitors; 300,000 tested, 1.2% active; active means well fitted inhibition curve with a large enough effect; inconclusive means small, poorly fitted or top-dose-only effect, or effect the other way; inactive means flat fitted curve, though single readings scatter; tested in HEK293 cells; further: on the % scale 0 is the no-effect control and ±100 the full control effect; nearly all actives have a fitted effect of over 50% in size; luciferase read-out
# NS1 function inh – inhibitors of influenza NS1 protein function; 270,000 tested, 0.4% active; Potency, µM (series often up to 46.1 µM), without a hit: at the highest dose activity, positive = more growth; S. cerevisiae slowed by influenza A NS1, growth recovery by OD600; further: actives are rising curves; nearly all actives have a fitted effect of over 50% in size
#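 S. cerevisiae expressing influenza A NS1, grown in glucose, washed, then diluted 1:100 into pH 6.0 -URA galactose medium with 23 nl compound. Growth recovery read as OD600; NS1-free strain serves as control.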
# SARS PLpro yeast – blocks SARS-CoV papain-like protease in a yeast assay; Potency, µM (top dose mostly 32.9 µM), for inactives: at the top dose activity, positive = growth rescue; 330,000 tested, 0.19% active; S. cerevisiae expressing SARS-CoV PLpro, growth rescue; control for the full effect not named in the record; further: 0% is about no effect; nearly all actives have a fitted effect of over 55% in size; growth read by luminescence after 48 h
# MARV entry inh – Marburg virus entry inhibition; Marburg virus pseudotyped entry inhibition, cell reporter; control for the full effect not named in the record; about a third of the inactives were read at about 46 µM; Potency, µM (top dose mostly 37.8 µM), inactives show at the top dose activity change, negative = inhibition, most hits filed as inhibitors; 300,000 tested, 1.8% active; AID 540276; active = well fitted inhibition curve with a large enough effect; inconclusive = small, poorly fitted or top-dose-only effect, or effect the other way; inactive = flat fitted curve, though single readings scatter; tested in HEK293 cells; about a fifth of its hits are not listed in these tables; further: on the % scale 0 is the no-effect control and ±100 the full control effect; luciferase read-out
# StopGo reporter – lowers the luciferase signal of an FMDV 2A StopGo reporter; human cells with a luciferase reporter of 2A StopGo recoding; control for the full effect not named in the record; Potency, µM (highest dose often 57.9 µM), for the others: top-dose signal change, negative = less light; 410,000 tested, 1.2% active; AID 1159524; active = well fitted falling curve with a large enough effect; inconclusive = small, poorly fitted or top-dose-only effect; inactive = no such curve, though single readings can be large or run the other way; tested in HEK293T cells; further: on the % scale 0 is the no-effect control and ±100 the full control effect; nearly all actives have a fitted effect of over 45% in size; luciferase light after 4 h
# Cruzain inh noDet – inhibitors of Trypanosoma cruzi cruzain without detergent; P25779; purified cruzain, Z-FR-AMC fluorescence, no detergent; Potency, µM, for the others: max response, negative = inhibition, usual class: inhibitors; 200,000 tested, 2.3% active; AID 1476; active means well fitted curve in the direction sought with a large enough effect; inconclusive means small, poorly fitted or top-dose-only effect, or another doubt; inactive means no such curve, though single readings can be large; an effect the other way counts as inactive or inconclusive;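 further: plate controls were enzyme without inhibitor for no effect and buffer without enzyme for full effect; nearly all actives have a fitted effect of over 40% in size; top concentration of the series not given in the record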
# Target sequence (P25779 123-467 limits assumed): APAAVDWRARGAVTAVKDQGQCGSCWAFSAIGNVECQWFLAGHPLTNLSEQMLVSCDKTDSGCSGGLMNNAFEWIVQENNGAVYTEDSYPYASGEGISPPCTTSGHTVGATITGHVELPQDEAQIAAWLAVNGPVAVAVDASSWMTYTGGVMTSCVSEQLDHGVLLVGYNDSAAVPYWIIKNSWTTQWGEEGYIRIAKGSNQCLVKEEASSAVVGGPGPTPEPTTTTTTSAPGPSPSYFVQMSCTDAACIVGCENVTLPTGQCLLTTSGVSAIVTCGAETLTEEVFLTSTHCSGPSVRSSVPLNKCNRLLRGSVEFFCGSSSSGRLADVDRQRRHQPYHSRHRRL
#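 Detergent-free condition (0.00005% Triton X-100) in acetate buffer pH 5.5 with DTT. 1.5 nM enzyme and compound were pre-mixed 15 min, then 2 uM Z-FR-AMC substrate added; reaction progress from fluorescence change between first and third reads (60 s).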
# Cruzain Triton – cruzain (T. cruzi) inhibition with detergent; P25779; purified cruzain, Z-FR-AMC fluorescence, 0.01% Triton; Potency, µM, for the others: max response, negative = inhibition, actives largely listed as inhibitors; 200,000 tested, 0.43% active; AID 1478; active means well fitted curve in the direction sought with a large enough effect; inconclusive means small, poorly fitted or top-dose-only effect, or another doubt; inactive means no such curve, though single readings can be large; an effect the other way counts as inactive or inconclusive;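 further: plate controls were neutral wells for no effect and buffer without enzyme for full effect; nearly all actives have a fitted effect of over 40% in size; top concentration of the series not given in the record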
#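 Detergent-containing arm of a paired screen for aggregation-based inhibition: 0.01% Triton X-100 present. Cruzain at 1.5 nM cleaved 2 uM Z-FR-AMC at pH 5.5 with 5 mM DTT; AMC fluorescence gain over 60 s measured activity.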
# An asterisk follows results filed as active; ? = inconclusive; . = no result given; & = joins results of further samples; [ ] = remark or other dose. Unless noted, the call rests on the fitted dose curve; in most records, active means well fitted rising curve with a large enough effect; inconclusive means small, poorly fitted or top-dose-only effect; inactive means no such curve, though single readings can be large or run the other way. Potency means the concentration at half of the fitted maximal effect.
SMILES,RE007 growth inh,LASV entry inh,NS1 function inh,SARS PLpro yeast,MARV entry inh,StopGo reporter,Cruzain inh noDet,Cruzain Triton
CN1C(=O)Cc2cc(S(=O)(=O)NCc3c(F)cccc3Cl)ccc21,1%,-22%[46.1 µM],-1%,1%,4%[46.1 µM],12%,.,.
CCOc1ccc(N2CC(C(=O)NCCN3C(=O)S/C(=C\c4ccc(OC)c(OC)c4)C3=O)CC2=O)cc1 (stereo not drawn),10%,6%,-7%,4%,-17%,-16%,?,-5.6%
O=C(/C=C/c1ccc2c(c1)OCO2)NCC1CCCO1 (stereo not drawn),-4%,?,.,-6%,-8%[46.1 µM],63%[activator],.,.
Cc1ccc(-n2nc3ccc(NC(=O)c4oc5ccccc5c4C)cc3n2)cc1,.,-7%[46.1 µM],.,.,.,20%,4%,-1.0%
Cc1ccccc1C(=O)N=c1c(C#N)cc2c(=O)n3cccc(C)c3nc2n1Cc1ccco1,.,.,?,-8%,.,.,0%,-16%
N#CCCCCC#N,-1%,.,.,2%,.,1%,5%,4.7%
O=C(Nc1ccccc1)N1CCC(O)(c2cccc(C(F)(F)F)c2)CC1,17%,11%[46.1 µM],-9%,-2%,-6%[46.1 µM],-4%,.,.
O=C(COC(=O)c1ccccc1[N+](=O)[O-])Nc1cccnc1Cl,-9%,3%,.,-4%,13%[46.1 µM],10%,.,.
O=C(CNC(=O)c1cccs1)N/N=C/c1cccc(Cl)c1,-2%,.,7%,0%,.,12%,.,.
Cc1cc(SCC(=O)c2ccccc2)nc(C)n1,-18%,11%,-11%,-7%,12%,-5%,0%,-2.8%

# Compounds listed so far with four or more nitrogen atoms, in the order listed:
SMILES,RE007 growth inh,LASV entry inh,NS1 function inh,SARS PLpro yeast,MARV entry inh,StopGo reporter,Cruzain inh noDet,Cruzain Triton
Cc1ccc(-n2nc3ccc(NC(=O)c4oc5ccccc5c4C)cc3n2)cc1,.,-7%[46.1 µM],.,.,.,20%,4%,-1.0%
Cc1ccccc1C(=O)N=c1c(C#N)cc2c(=O)n3cccc(C)c3nc2n1Cc1ccco1,.,.,?,-8%,.,.,0%,-16%

# Next section.
SMILES,RE007 growth inh,LASV entry inh,NS1 function inh,SARS PLpro yeast,MARV entry inh,StopGo reporter,Cruzain inh noDet,Cruzain Triton
COCCCn1c(=S)[nH]c2sc3c(c2c1=O)CCCS3,7%,14%,.,0%,?,10%,.,.
CCC/C(=N\NC(=O)C1CCCC1)c1ccccc1,-1%,27%[46.1 µM],2%,-2%,18%[46.1 µM],5%,.,.
Cc1ccccc1NC(=O)c1cc(C(=O)c2cc(Cl)ccc2O)cn(-c2ccccc2C)c1=O,-2%,?,16%,-19%,?,?,7.9µM*,-3.7%
Cc1ccc(NC(=O)CNCc2ccccc2Cl)cc1S(=O)(=O)N(C)C,-6%,?,1%,-1%,4%,61%[activator],.,.
O=C(NC1CCCCC1)c1ccc2c(c1)sc1nc(-c3ccc(F)cc3)cn12,.,-6%[46.1 µM],.,.,.,14%,?,-4.8%
COc1cccc(N2C(=O)Nc3ccc(Br)cc3C2(O)C(=O)NCCCOC(C)C)c1 (stereo not drawn),-11%,2%[46.1 µM],3%,0%,?,-13%,.,.
CC(=O)c1cc2c(cc1NC(=O)CN1CCC(Cc3ccccc3)CC1)OCO2,-1%,19%,-3%,-2%,?,?,-1%,-6.4%
CCOC(=O)c1ccc(N2C(=O)c3n[nH]c(-c4ccco4)c3C2c2ccc(C(=O)OC)cc2)cc1 (stereo not drawn),.,?,.,.,?,?,0%,?
Cc1cc(SCc2ccc(Cl)cc2)nc(=O)[nH]1,9%,.,7%,21%,.,26%,.,.
O=C(Cc1ccccc1F)Nc1ccc(Cl)nc1,-13%,7%,-2%,0%,?,-6%,-11%,-1.9%

# Just MARV entry inh, RE007 growth inh and LASV entry inh (2 entries from above):
Structure	MARV entry inh	RE007 growth inh	LASV entry inh
Cc1ccc(NC(=O)CNCc2ccccc2Cl)cc1S(=O)(=O)N(C)C	4%	-6%	?
O=C(NC1CCCCC1)c1ccc2c(c1)sc1nc(-c3ccc(F)cc3)cn12	.	.	-6%[46.1 µM]

# Continuation.
SMILES,RE007 growth inh,LASV entry inh,NS1 function inh,SARS PLpro yeast,MARV entry inh,StopGo reporter,Cruzain inh noDet,Cruzain Triton
Cc1ccc(-c2nnc(SCC(=O)N(C)C)nc2-c2ccc(C)cc2)cc1,-13%,-13%[46.1 µM],2%,-3%,?,27%,.,.
CCOC(=O)C1C(C(=O)OC)=C(C2=CCCCC2)c2ccccc2N1S(=O)(=O)C(F)(F)F (stereo not drawn),-9%,.,.,-40%,.,?,-2%,0.1%
COc1cc(C(C2C(=O)CC(C)(C)CC2=O)C2C(=O)CC(C)(C)CC2=O)cc(OC)c1OC,15%,11%,2%,3%,12%,-1%,.,.
COc1ccc(-c2cc(C(F)(F)F)n3nc(C(=O)NCCN4CCOCC4)cc3n2)cc1,20%,3%,3%,-2%,-13%&-13%,-15%,.,.
CCOc1ccccc1/C=N/NC(=O)c1nnn(-c2nonc2N)c1CN1CCC(C)CC1,-20%,0%,-3%,-3%,4%[46.1 µM],12%,.,.
CS(=O)(=O)N(CC(=O)Nc1ccc2c(c1)OCO2)Cc1ccc(Cl)cc1,-1%,?,-10%,-1%,-20%,0%,-7%,0.9%
CCN(CC(=O)NCCc1ccccc1)S(=O)(=O)c1ccc(C)cc1,5%,-11%,-19%,-4%,?,-8%,-4%,-2.2%
O=C(Cn1cncn1)c1ccc(Cl)cc1,7%,6%[46.1 µM],-1%,-3%,10%[46.1 µM],10%,.,.
COc1cc(NS(=O)(=O)c2cc(C(=O)N3CCN(C(C)=O)CC3)ccc2OC)cc(OC)c1,-6%,-15%[46.1 µM],.,3%,?,19%,.,.
COCCN(C(=O)CCCC(=O)Nc1ccccn1)C(C(=O)NC1CCCC1)c1ccc(C)cc1 (stereo not drawn),10%,-2%,-10%,-1%,5%&5%,16%,9%,5.9%
c1ccc2sc(NC3=NCN(C4CCCCC4)CN3)nc2c1,-1%,?,-2%,1%,-3%,13%,-16%,-15%
CC(C)(C)NC(=S)NC(=O)C12CC3CCC(CC(C3)C1)C2,26%,-17%,-10%,-12%,13%,-21%,-1%,-4.8%
Cc1cccc(N2CCN(C(=O)c3ccc(-n4cncn4)c([N+](=O)[O-])c3)CC2)c1C,6%,.,-12%,-5%,.,-29%,.,.
CCC(=O)N1CCc2cc(S(=O)(=O)CCC(=O)NCc3cccc(OC)c3)ccc21,16%,12%[46.1 µM],-5%,1%,-16%&-16%[46.1 µM],-18%&-3%,-17%,5.1%
CC(C)(C)NCC(O)COc1ccc(Br)cc1 (stereo not drawn),-5%,.,-2%,-1%,.,-11%,.,.
O=C(CC(Sc1n[nH]c(-c2ccccc2)n1)c1ccccc1)NCc1ccccc1 (stereo not drawn),6%,16%,12%,5%,11%,?,8%,-7.5%
COc1ccc(-c2cc(-c3ccc(OC)cc3)nc(-c3ccc4c(c3)NC(=O)CO4)c2)cc1,-5%,-7%,16%,-2%,3%,-21%,7%,0.1%
O=c1c2ccccc2nc(CSc2ncnc3nc[nH]c23)n1-c1ccc(Cl)c(Cl)c1,0%,?,4%,0%,-13%,?,-3%,3.5%
CN(CC(=O)N1CCOCC1)S(=O)(=O)c1ccc2ccccc2c1,-1%,.,18%,-3%,.,2%,.,.
CC(Cc1ccccc1)NC(=O)c1cc2ccccc2o1 (stereo not drawn),7%,1%[46.1 µM],-10%,-10%,?,39%[activator],.,.
O=C(Nc1cc(Cl)ncn1)c1ccccc1,-13%,-16%,.,.,-13%[46.1 µM],30%[activator],.,.
CCCCCOCC1CC(C/C(C)=N/Nc2nc(-c3ccccc3)cs2)C(=O)O1 (stereo not drawn),-17%,12%,18%,20%,5%,8%,?,-9.3%
COc1ccc(/C=C2\SC(N)=NC2=O)cc1,-5%,24%,-37%,-3%,-26%,53%[activator],.,.
O=C(COCc1ccccc1)N[C@@H](Cc1ccc(O)cc1)C(=O)O,0%,.,-3%,0%,.,4%,.,.
COc1ccc(OC)c(S(=O)(=O)NCc2cc(-c3ccccc3)no2)c1,10%,?,-1%,-1%,0%[46.1 µM],6%,.,.
CC(=Nc1ccccc1)C1=C(O)C(Cc2ccccc2)NC1=O (stereo not drawn),-4%,-14%,.,.,6%,33%[activator],.,.
CC(=O)N1CCC(N(CCN2CCOCC2)C(=S)Nc2cc(C)ccc2C)CC1,7%,13%,1%,10%,?,-14%,7%,1.1%
COCCN(Cc1ccccc1)C(=O)c1cc(-c2ccc(OC)c(OC)c2)nc2ccccc12,3%,?,-21%,7%,?,-22%,.,.
NC(=O)N/N=C/c1c(F)cccc1F,-6%,19%,9%,14%,-9%,-24%,0%,-2.7%
Cc1ccc(S(=O)(=O)N(C)C)cc1NC(=O)c1cc(=O)c2ccccc2o1,-10%,15%,11%,-2%,.,-9%,.,.
Cn1c(=O)c2c(SCC(=O)NCC3CCCO3)nc(-c3cccc(F)c3)nc2n(C)c1=O (stereo not drawn),.,-5%[46.1 µM],.,.,.,-6%,-2%,2.1%
N=c1c(C(=O)NC2CCCC2)cc2c(=O)n3ccccc3nc2n1CCCN1CCOCC1,-15%,16%,8%,1%,-10%[46.1 µM],-11%,.,.
CC1CCCCC1NC(=O)/C(C#N)=C/C=C/c1ccccc1[N+](=O)[O-] (stereo not drawn),3%,?,.,0%,2.8µM*,28µM*,.,.
CCC(=O)Nc1cccc(C(=O)OCc2cc(=O)n3nc(CC)sc3n2)c1,.,14%[46.1 µM],.,.,.,-18%,-8%,1.3%
COc1ccc(OC)c(N(CC(=O)Nc2ccc(NC(C)=O)cc2)S(C)(=O)=O)c1,7%,-15%,0%,1%,-1%,.,-22%,1.6%
CCN(CC)S(=O)(=O)c1ccc2oc(Nc3ccc(OC)cc3)nc2c1,4%,-21%,24%,-2%,-17%,9%,.,.
Cc1ccc2nc(Nc3ccc4[nH]c(=O)[nH]c4c3)c(-n3nc(C)cc3C)nc2c1,-3%,?,-92%,7%,5%,.,21%,-13%
